# RE007 growth inh: less growth of the S. pombe RE007 Vpr strain | S. pombe RE007 Vpr strain, BacTiter-Glo ATP luminescence, 24 h; control for the full effect not named in the record | Potency, µM (top dose mostly 92.2 µM), inactives show at the highest dose activity change, negative = less growth | actives 0.21% (n = 360,000); active = well fitted falling curve with a large enough effect; inconclusive = small, poorly fitted or top-dose-only effect; inactive = no such curve, though single readings can be large or run the other way;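 further: on the % scale 0 is the no-effect control and ±100 the full control effect; nearly all actives have a fitted effect of over 50% in size; the assay follows cell death caused by Vpr and the record does not say whether a fall means rescue or toxicity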
#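 Fission yeast strain RE007, carrying one chromosomally integrated HIV-1 vpr copy, was seeded at OD 0.01 in PMG+AL medium with 23 nL pinned compound. After 24 h at 30 °C and 99% humidity, viability was read by BacTiter-Glo luminescence.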
# StopGo reporter: FMDV 2A StopGo reporter, luciferase signal; human cells with a luciferase reporter of 2A StopGo recoding; control for the full effect not named in the record; Potency, µM (highest dose often 57.9 µM), inactives show at the highest dose signal change, negative = less light; actives 1.2% (n = 410,000); active = well fitted falling curve with a large enough effect; inconclusive = small, poorly fitted or top-dose-only effect; inactive = no such curve, though single readings can be large or run the other way; tested in HEK293T cells; further: on the % scale 0 is the no-effect control and ±100 the full control effect; nearly all actives have a fitted effect of over 45% in size; luciferase light after 4 h
# SARS PLP yeast: blocks SARS-CoV papain-like protease in a yeast assay; S. cerevisiae expressing SARS-CoV PLpro, growth rescue; control for the full effect not named in the record; Potency, µM (top dose mostly 32.9 µM), without a hit: top-dose activity, positive = growth rescue; actives 0.19% (n = 330,000); AID 485353; further: 0% is about no effect; nearly all actives have a fitted effect of over 55% in size; growth read by luminescence after 48 h
# Cruzain noTriton: blocks cruzain activity in detergent-free assay | purified cruzain, Z-FR-AMC fluorescence, no detergent | actives 2.3% (n = 200,000) | Potency, µM, without a hit: max response, negative = inhibition, actives largely listed as inhibitors | AID 1476 | P25779; active means well fitted curve in the direction sought with a large enough effect; inconclusive means small, poorly fitted or top-dose-only effect, or another doubt; inactive means no such curve, though single readings can be large; an effect the other way counts as inactive or inconclusive;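 further: plate controls were enzyme without inhibitor for no effect and buffer without enzyme for full effect; nearly all actives have a fitted effect of over 40% in size; top concentration of the series not given in the record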
# Target sequence (P25779 123-467 limits assumed): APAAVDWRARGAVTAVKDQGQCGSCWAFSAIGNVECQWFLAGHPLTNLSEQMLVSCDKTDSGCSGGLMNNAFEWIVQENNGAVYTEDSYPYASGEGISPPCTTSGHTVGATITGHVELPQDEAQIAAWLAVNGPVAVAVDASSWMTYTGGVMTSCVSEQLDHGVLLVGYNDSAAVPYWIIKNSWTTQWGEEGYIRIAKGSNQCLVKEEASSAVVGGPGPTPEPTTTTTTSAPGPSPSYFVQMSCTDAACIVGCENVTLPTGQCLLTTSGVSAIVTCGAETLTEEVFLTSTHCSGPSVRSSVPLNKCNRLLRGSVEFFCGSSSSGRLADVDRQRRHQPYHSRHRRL
#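 Purified cruzain at 1.5 nM, pre-incubated 15 min with compound at room temperature in 100 mM sodium acetate pH 5.5, 5 mM DTT, 0.00005% Triton X-100. Reaction started with 2 uM Z-FR-AMC; AMC fluorescence increase over 60 s gives rate.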
# Marburg entry inh: inhibitors of Marburg virus binding or cell entry. actives 1.8% (n = 300,000). Potency, µM (highest dose often 37.8 µM), without a hit: at the top dose activity change, negative = inhibition, usual class: inhibitors. Marburg virus pseudotyped entry inhibition, cell reporter; control for the full effect not named in the record; about a third of the inactives were read at about 46 µM; active = well fitted inhibition curve with a large enough effect; inconclusive = small, poorly fitted or top-dose-only effect, or effect the other way; inactive = flat fitted curve, though single readings scatter; tested in HEK293 cells; about a fifth of its hits are not listed in these tables; further: on the % scale 0 is the no-effect control and ±100 the full control effect; luciferase read-out
# Lassa entry inh: blocks Lassa virus binding to or entry into cells; actives 1.2% (n = 300,000); Lassa virus pseudotype entry inhibition, cell reporter; control for the full effect not named in the record; Potency, µM (top dose mostly 37.9 µM), without a hit: at the top dose activity change, negative = inhibition, most hits filed as inhibitors; active means well fitted inhibition curve with a large enough effect; inconclusive means small, poorly fitted or top-dose-only effect, or effect the other way; inactive means flat fitted curve, though single readings scatter; tested in HEK293 cells; further: on the % scale 0 is the no-effect control and ±100 the full control effect; nearly all actives have a fitted effect of over 50% in size; luciferase read-out
# Cruzain inh Det: inhibitors of Trypanosoma cruzi cruzain with detergent; P25779; purified cruzain, Z-FR-AMC fluorescence, 0.01% Triton; Potency, µM, for the others: max response, negative = inhibition, actives largely listed as inhibitors; actives 0.43% (n = 200,000); AID 1478; active means well fitted curve in the direction sought with a large enough effect; inconclusive means small, poorly fitted or top-dose-only effect, or another doubt; inactive means no such curve, though single readings can be large; an effect the other way counts as inactive or inconclusive;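 further: plate controls were neutral wells for no effect and buffer without enzyme for full effect; nearly all actives have a fitted effect of over 40% in size; top concentration of the series not given in the record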
#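 Cruzain (1.5 nM) preincubated 15 min at RT with compound in 100 mM sodium acetate pH 5.5, 5 mM DTT, 0.01% Triton X-100. Reaction started with 2 uM Z-FR-AMC; AMC fluorescence (ex 360/em 450 nm) change over 60 s gave rate.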
# NS1 function inh: inhibitors of influenza NS1 protein function; Potency, µM (top dose mostly 46.1 µM), for the others: at the top dose activity, positive = more growth; actives 0.4% (n = 270,000); S. cerevisiae slowed by influenza A NS1, growth recovery by OD600; further: actives are rising curves; nearly all actives have a fitted effect of over 50% in size
#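 A cell-based growth assay was used: compounds that relieve NS1-induced slow growth of budding yeast raise OD600. Assay medium was yeast nitrogen base with ammonium sulphate and -URA supplement, pH 6.0, with 2% galactose.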
# * marks the source's active call; other numbers are inactive results; ? = inconclusive; · = not tested or not shown; & = joins results of further samples; ! = not confirmed by another sample; [ ] = dose if it differs, or a comment. Unless noted, the call rests on the fitted dose curve; in most records, active means well fitted rising curve with a large enough effect; inconclusive means small, poorly fitted or top-dose-only effect; inactive means no such curve, though single readings can be large or run the other way. Potency means the concentration at half of the fitted maximal effect.
SMILES,RE007 growth inh,StopGo reporter,SARS PLP yeast,Cruzain noTriton,Marburg entry inh,Lassa entry inh,Cruzain inh Det,NS1 function inh
CCN(CC)S(=O)(=O)c1cccc(NC(=O)CN(C)Cc2cccc(OC)c2)c1,-15%,?,0%,·,23µM*,11µM*,·,0%
CCn1nc([N+](=O)[O-])c2c(-c3nc4ccccc4o3)c(N)n(CCCOC)c2c1=O,0%,?,4%,·,?,?,·,·
O=C(CNC(=O)c1ccccc1)NCCc1nc2ccccc2[nH]1,2%,1%,0%,-17%,0%,-2%,-6.0%,9%
CC(=O)c1cc(N2CCC(C(=O)O)CC2)ccc1[N+](=O)[O-],-2%,-2%,5%,·,11%[46.1 µM],-19%[46.1 µM],·,·
Cc1cccc(N=C2NC(=O)CS2)c1,23%,-6%,-6%,4%,4%,19%,0.9%,-7%
CCOC(=O)c1c(CN(CC)CC)oc2cc(Br)c(O)cc12,-4%,-18%,4%,-9%,1%,·,4.9%,-10%
CCCCOC(=O)Nc1nnc(C(C)C)s1,1%,42%[activator],-4%,·,?,?,·,·
Cc1ccc(-c2c(CN3CCN(c4cccc(C)c4C)CC3)csc2C)cc1,·,-24%,·,-2%,·,22%[46.1 µM],-6.4%,·
O=C(Cn1nnc(-c2ccccc2F)n1)N1CCCCC1,-7%,35%[activator],-5%,·,·,·,·,-8%
COc1ccc(CCNc2ccncn2)cc1OC,-1%,-21%,-1%,-3%,-5%,0%,4.6%,1%
Cc1oc(-c2ccccc2)cc1C(=O)Nc1ccccc1,4%,-12%,-6%,-2%,-7%,1%,2.2%,-17%
CCOC(=O)c1ccc(NS(=O)(=O)c2ccc3[nH]c(=O)[nH]c3c2)cc1,1%,6%,-8%,-12%,22%,-2%,0.7%,-165%
CC(OC(=O)Cc1c[nH]c2ccccc12)C(=O)Nc1ccc(S(N)(=O)=O)cc1 (configuration not stated),-2%,-10%,1%,·,?,28%,·,·
CCn1c(SCC(=O)Nc2nncs2)nnc1C(C)NC(=O)c1ccccc1Br (configuration not stated),1%,1%,7%,·,40%[46.1 µM],·,·,-2%
CC(OC(=O)c1cccc(S(=O)(=O)Nc2cccc(C(F)(F)F)c2)c1)C(=O)Nc1ccc2c(c1)OCCO2 (configuration not stated),-7%,-31%,-2%,4%,-42%,?,-7.1%,11%
CC1Sc2ccc(S(=O)(=O)CCC(=O)NCc3cccs3)cc2NC1=O (configuration not stated),11%,-10%,-4%,·,·,·,·,-1%
COc1cccc(/C=C/C(=O)OCC(=O)NCCNC(=O)COC(=O)/C=C/c2cccc(OC)c2)c1,32%,-6%,0%,·,?,-2%,·,·
CCOC(=O)N1CCN(C(=O)c2ccc(NS(=O)(=O)c3ccc(F)cc3)cc2)CC1,-9%,-7%,1%,·,·,·,·,-5%
CCCc1ccc(Oc2coc3cc(OCC(=O)Nc4ccccc4C)ccc3c2=O)cc1,10%,?,2%,6%,-10%,-19%,-3.5%,8%
Cc1ccc(-c2nc(CSCC(=O)N3CCN(c4ccccn4)CC3)c(C)o2)cc1,-20%,?,-8%,1%,·,·,-3.6%,-32%
COc1ccc(NC(=O)Cn2c(=O)n(CCCC(=O)NCc3ccccc3OC)c(=O)c3ccccc32)cc1Cl,·,-22%,·,-14%,8%[46.1 µM],0%[46.1 µM],-2.2%,·
CCOc1ccc(CC(=O)NCCS(=O)(=O)N2CCN(c3ccc(OC)cc3)CC2)cc1,·,-3%,·,6%,·,-16%[46.1 µM],-1.0%,·
C(=C\c1ccco1)/c1ccc2ccccc2n1,?,-69%,-2%,·,2.8µM*,?,·,-30%
COc1cccc(C(=O)N2CCN(Cc3nc(CC4CC4)no3)CC2)c1,-3%,-6%,4%,·,·,·,·,-1%
Cc1sc2ncnc(OCC(=O)N3CC(=O)Nc4ccccc43)c2c1C,26%,-15%,1%,·,1%[46.1 µM],3%,·,·

# (listing goes on)
SMILES,RE007 growth inh,StopGo reporter,SARS PLP yeast,Cruzain noTriton,Marburg entry inh,Lassa entry inh,Cruzain inh Det,NS1 function inh
C=CCNc1nc(Cl)nc(Nc2ccc(OC)cc2)n1,1%,10%,2%,-7%,?,-13%,1.1%,-7%
COc1ccc(N2C(=O)CC(NCCNc3ccc([N+](=O)[O-])cn3)C2=O)cc1 (configuration not stated),-4%,-7%,-12%,0%,-3%,23%,-5.3%,7%
O=S(=O)(c1ccccc1)N(CC(O)CN1CCCCC1)c1ccccc1 (configuration not stated),-12%,-4%,-2%,-11%,-10%[46.1 µM],-1%,4.8%,7%
Cn1c2ccccc2c(=O)c2c(=O)n(C3CCCCC3)c(-c3cccs3)nc21,-8%,-26%,-3%,-17%,-28%,-26%,3.4%,11%
O=C(O)C(c1ccccc1)N1CCCC1 (configuration not stated),12%,7%,9%,7%,-3%,14%,2.3%,3%
Clc1ccc2oc(-c3cccnc3NCc3ccccc3)nc2c1,2%,11%,2%,-6%,-11%,1%,-14%,6%
CCOC(=O)C1=C(C)OC2(O)c3ccccc3C(=O)C12O (configuration not stated),-3%,-6%,0%,·,·,·,·,1%
CC1CCN(CCNC(=O)CCS(=O)(=O)c2ccc(Br)cc2)CC1,1%,-19%,3%,10%,?,-2%,8.8%,-3%
O=C(C1CCCN(S(=O)(=O)c2cccc3nonc23)C1)N1CCN(c2cccc(Cl)c2)CC1 (configuration not stated),-12%,-8%,-2%,9%&-19%,23µM*!,5%[46.1 µM],-2.6%&-2.0%,6%
Oc1ccc(/C=N/NP(=S)(c2ccccc2)c2ccccc2)cc1O,12%,36%[activator],-1%,-2%,6%,19%,-11%,15%
O=S(=O)(/N=C(/Nc1ccccn1)c1ccccc1)c1ccc(F)cc1,12%,8%,13%,·,24%[46.1 µM],26%[46.1 µM],·,3%
CCOC(=O)c1c(NC(=O)C2=C(C)NC(=S)NC2c2ccc(CC)cc2)sc(C)c1C (configuration not stated),·,·,5%,10µM*,-18%,?,-4.7%,?
CCN(CC)CCNc1nc(-c2ccc(OC)cc2)c(-c2ccc(OC)cc2)s1,5%,-20%,0%,·,·,·,·,4%
O=C(NCCOc1ccc(F)cc1)C1CCC(=O)N(CCCN2CCCC2=O)C1 (configuration not stated),10%,20%,4%,·,·,·,·,-6%
Cc1ccc(F)cc1NC(=O)N1CCCN(c2ccc(C(F)(F)F)cn2)CC1,2%,?,-4%,·,?,-20%,·,0%
COc1ccc(CCNC(=O)c2cc(-c3ccc(C)cc3O)n[nH]2)cc1OC,-1%,-27%,12%,5%,?,?,-1.4%,6%
CC(C)CCNC(=O)c1c[nH]c2ccc(S(=O)(=O)N3CCC4(CC3)OCCO4)cc2c1=O,10%,-17%,-8%,21%,-2%&5%,3%&6%,-4.5%,16%
NC(=O)c1ccc(Oc2ccc(Cl)c3ccccc23)c([N+](=O)[O-])c1,5%,0%,4.5µM*,2%,0%,-18%,-9.0%,5%
Cc1nn(-c2ccccc2C(=O)O)c(=O)c2ccccc12,11%,-14%,1%,2%,?,19%,5.7%,7%
CCc1ccc(N2CC(O)=C(c3nc4ccccc4c(=O)[nH]3)C2=N)cc1,9%,34%[activator],0%,·,7%,-20%,·,-4%
Cc1nc2ccc(S(=O)(=O)NC(C(=O)NCc3ccco3)C(C)C)cc2s1 (configuration not stated),7%,-17%,0%,-5%,·,·,-5.6%,4%
CCC1Oc2ccccc2N(CC(=O)NCCCN2CCN(CC)CC2)C1=O (configuration not stated),-9%,-6%,0%,·,·,·,·,-2%
COCCCNC(=O)CC(c1cc(OC)c(OC)c(OC)c1)N1Cc2ccccc2C1=O (configuration not stated),·,23%,·,?,·,23%[46.1 µM],-1.3%,·
CCOC(=O)Cn1c(C(=O)OCC)cc2sccc21,16%,·,-14%,-4%,-6%,8%,0.9%,-15%
Cc1cccc(C(=O)Nc2scc(-c3ccc(Br)cc3)c2C(=O)O)c1,3%,-11%,·,·,?,?,·,·

# The results go on:
SMILES,RE007 growth inh,StopGo reporter,SARS PLP yeast,Cruzain noTriton,Marburg entry inh,Lassa entry inh,Cruzain inh Det,NS1 function inh
COC(=O)c1sc(S(=O)(=O)N2CCN(c3ccccc3)CC2)c(C(=O)OC)c1C,8%,-24%,-12%,-7%,?,2%,2.2%,-5%
Cc1ccccc1-c1nc(C(N)=O)c2c(n1)n(-c1ccc3c(c1)OCO3)c(=O)n2C,·,-5%,·,-10%,?,-15%[46.1 µM],-2.7%,·
O=C(Nc1ccc(Cl)cc1Cl)Nn1cnnc1,11%,-19%,0%,·,·,·,·,3%
Cc1cc(NC(=O)COC(=O)c2ccc(S(=O)(=O)N3CCCc4ccccc43)cc2)no1,8%,0%,-4%,4%,?,-18%,-8.1%,-15%
CCc1cc(=O)oc2c(C)c(OCC(=O)NCCCN3CCCC3=O)ccc12,2%,-10%,1%,·,·,·,·,5%
O=C(NCc1cccc(F)c1)C1CCN(C(=O)c2sccc2-n2cccc2)CC1,-26%,6%&-9%,1%,-9%,11%&11%[46.1 µM],·,-1.5%,·
CN(C)C(=O)C1OC(C)(C)OC1C(=O)N(C)C (configuration not stated),-10%,·,2%,8%,4%,13%,4.1%,9%
COc1cccc2cc(-c3nnc(SCC(=O)Nc4nc(C)cs4)n3C)oc12,-3%,-3%,4%,11%,?,?,5.1%,?
Cc1cc(C)cc(C(=O)OCC(=O)Nc2cccc(S(=O)(=O)NC3=NCCCCC3)c2)c1,19%,-8%,-3%,?,?,?,0.6%,-12%
Cc1ccccc1CCNC(=O)c1ccc2c(c1)c(C)c(C)n2Cc1ccccc1,·,0%,·,20µM*,·,-11%[46.1 µM],2.7%,·
O=C(CN1C(=O)CCS(=O)(=O)c2ccccc21)NCc1ccc(F)cc1,-6%,-19%,-6%,9%,-4%,1%,1.6%,4%
Cc1ccc(S(=O)(=O)Nc2ccc(Br)cc2/C=N/n2cnnc2)cc1,-8%,·,-54%,-4%,?,-20%,-11%,-197%
CCCCCN(C(=O)COC(=O)Cc1c(C)nc2ccccc2c1C)c1c(N)n(CCCC)c(=O)[nH]c1=O,-18%,-8%,·,·,?,-5%,·,·
COc1ccc(S(=O)(=O)N2c3ccccc3OCC2CC(=O)O)cc1 (configuration not stated),-10%,13%,1%,·,·,·,·,8%

# Bioassay records from PubChem BioAssay.

# Outcome played no part in choosing rows. About 4.7% of those tested had a hit in this group.
